StopGo RLuc = Primary qHTS Assay for Foot and Mouth Disease Virus Antivirals against NCGC Sytravon and CBC Compound Libraries: Renilla Luciferase Signal; HEK cells with a luciferase reporter of 2A StopGo recoding; Potency, µM (doses to about 57.5 µM), without a hit: top-dose signal change, negative = less light; hit rate 0.32% among 120,000; active means well fitted falling curve with a large enough effect; inconclusive means small, poorly fitted or top-dose-only effect; inactive means no such curve, though single readings can be large or run the other way; also: nearly all actives have a fitted effect of over 55% in size; overnight with compound
2A firefly = Primary qHTS Assay for Foot and Mouth Disease Virus Antivirals against NCGC Sytravon and CBC Compound Libraries: Firefly Luciferase Signal | HEK cells with a luciferase reporter of 2A StopGo recoding | Potency, µM (titrated, usually from 57.5 µM), inactives show at the highest dose signal change, negative = less light | hit rate 0.23% among 120,000; active = well fitted falling curve with a large enough effect; inconclusive = small, poorly fitted or top-dose-only effect; inactive = no such curve, though single readings can be large or run the other way; also: nearly all actives have a fitted effect of over 60% in size; overnight with compound
An asterisk follows results filed as active; ? = inconclusive; & = joins results of further samples; [ ] = another dose, or the depositor's remark. % is scaled to controls: 0 for no effect and ±100 for the full control effect; potency is read from the fitted curve at half-maximal effect.

A first look:
smiles,StopGo RLuc,2A firefly
N#Cc1c(SCc2ccccc2)cc(SCc2ccccc2)cc1SCc1ccccc1,6%,6%
O=C(Nc1ccccc1C(=O)NCc1cccnc1)c1cccnc1,-7%,-7%
CCN(CC)C(=O)c1cc2cc(Br)ccc2oc1=O,-8%,-8%

All compounds of this part, previewed entries included:
smiles,StopGo RLuc,2A firefly
N#Cc1c(SCc2ccccc2)cc(SCc2ccccc2)cc1SCc1ccccc1,6%,6%
O=C(Nc1ccccc1C(=O)NCc1cccnc1)c1cccnc1,-7%,-7%
CCN(CC)C(=O)c1cc2cc(Br)ccc2oc1=O,-8%,-8%
Cc1ccc2c(c1)B(O)c1cc(C)ccc1O2,14%,100%[activator]
CC(=O)N1CCN(C(=O)Cn2c(NCc3ccccc3)nc3ccccc32)CC1,-5%,29%
O=C(c1ccc(Br)cc1)N1CCC(CN2CCOCC2)CC1,-2%,8%
O=C(Nc1ccc(F)c(Cl)c1)c1cc(S(=O)(=O)N2CCCc3ccccc32)ccc1F,-18%,46%[activator]
Cc1ccccc1CNCc1ccco1,13%,2%
O=C(CC1(O)C(=O)N(CCc2ccccc2)c2ccc(Br)cc21)c1ccccc1 (configuration not stated),0%,-7%
NC(=S)N/N=C/c1cc(-c2ccccc2)[nH]c1-c1ccccc1,107%[activator],238%[activator]
Nc1c(-c2nc(-c3ccc4c(c3)OCO4)cs2)c2ccccn2c1C(=O)c1ccccc1,6%,24%
COc1cc(Br)ccc1C1C(C(=O)Nc2ccc(C)cc2C)=C(C)Nc2nnnn21 (configuration not stated),0%,-18%
Cc1ccc(S(=O)(=O)N2CCCCC2)cc1NC(=O)c1oc2c(F)cccc2c1C,1%,-3%
CCOC(=O)c1[nH]c(C)c(CCC(=O)N2CCN(c3ccccc3)CC2)c1C,8%,-4%
Cc1ncc(-c2ccc(S(=O)(=O)Nc3ccc(C)c(C)c3)cc2)o1,200%[activator],?
Nc1ccc(C(c2ccccc2)(c2ccccc2)c2ccc(N)cc2)cc1,-16%,-15%
CC(C)c1ccc(NC(=O)/C=C/c2cc3cc(Cl)ccc3o2)cc1,32%[activator],55%[activator]
CC(C)(C)c1ccc(C(=O)Nc2cc(-c3nc4ccccc4o3)ccc2Cl)cc1,-5%,7%
CC(=O)Nc1c(C)noc1/C=C\c1ccc(S(=O)(=O)Nc2ccc(C)cc2)cc1,200%[activator],22%
CCOc1ccc(NS(=O)(=O)c2ccc3nc(-c4ccccc4)[nH]c3c2)cc1,119%[activator],2%
c1ccc(Cc2nc(-c3ccc4c(c3)OCCCO4)cs2)cc1,?,-25%
O=C(CSc1oc(-c2ccccc2)nc1S(=O)(=O)c1ccc(Cl)cc1)NC1CCCCC1,-9%,-2%
CCOC(=O)c1ccc(N2C(=O)c3n[nH]c(-c4cccs4)c3C2c2ccc(C(C)C)cc2)cc1 (configuration not stated),-3%,10%
COc1ccc(-c2nc3scc(CCNS(=O)(=O)c4c(C)noc4C)n3n2)cc1,132%[activator],1%
CNC(=O)c1ccc(NC(=O)C2CCN(S(=O)(=O)c3ccc(C)cc3C)CC2)cc1,-5%,-16%
CCCC[n+]1c(NCc2cc(Br)cc(Br)c2[O-])[nH]c2ccccc21,-2%,4%
COc1ccc(COC(=O)c2cc(S(=O)(=O)N3CCCCC3)ccc2N2CCOCC2)cc1F,-3%,4%
Cc1nn(-c2ccc3nnc(C)n3n2)c2c1C(c1cccc(OC(C)C)c1)CC(=O)N2 (configuration not stated),?,?
Cc1ccc(Nc2nc(-c3cccnc3)nc3ccccc23)cc1,10%,6%
C=CCc1cccc2cc(C(=O)Nc3cccc(Cl)c3)c(=O)oc12,8%,-10%
COc1ccc(-n2nc(C(=O)N3CCN(c4cccc(C)c4C)CC3)c3c4ccccc4n(C)c3c2=O)cc1,6%,-8%
Cc1cccc(NC(=O)c2ccc(CSc3ccc(Cl)cc3)cc2)c1C,-4%,-5%
C/C(=C\C(=O)NCCN1CCOCC1)CCc1ccccc1,-10%,9%
CCN(CC)S(=O)(=O)NCc1ccccc1Cn1cccn1,27%,6%
Cc1cccc(OCCCCn2nnc3sc4c(c3c2=O)CCC(C)C4)c1 (configuration not stated),-5%,-9%
COc1ccc(N(C(=O)/C=C\C(=O)Nc2ccc(Cl)cc2)C(C(=O)NCc2ccco2)c2ccc(C)cc2)cc1 (configuration not stated),-12%,-27%
Cc1ccc(CNC(=O)CN2CCN(Cc3ccc(F)cc3)C2=O)cc1,14%,13%
COc1cccc(CNC(=O)C2CCN(c3nnc(-n4c(C)ccc4C)s3)CC2)c1OC,8%,0%
COc1cc(OC)c2[nH]c(C(=O)OC(C)C(=O)c3ccccc3)cc2c1 (configuration not stated),16%,15%
CCOc1ccc(-c2cc(C(=O)O)c3cc(Br)ccc3n2)cc1,?,0%&32%
CCc1ccc(C(=O)c2cn(CC(=O)Nc3ccc4c(c3)OCCO4)c3ccc(F)cc3c2=O)cc1,-8%,-2%
CC(C)C(=O)Nc1ccc(-c2nc(-c3ccccc3)co2)cc1,6%,140%[activator]
O=S(=O)(c1ccccc1)c1nc(-c2cccs2)oc1SCc1ccccc1F,74%[activator],-9%
COC(=O)CCCNC(=O)c1cc(-c2ccncc2)nc2ccccc12,-3%,12%
CCCCCn1nc(C(=O)NC2CCN(C(=O)C3CC3)CC2)c2ccccc2c1=O,-13%,0%
O=C(CSc1nc2ccccc2n1Cc1ccccc1F)NCc1ccccc1,16%,4%
O=C(COC(=O)c1ccc(S(=O)(=O)N2CCCC2)cc1)Nc1ccc(Cl)cn1,-3%,2%
Cc1ccc(Cl)cc1NC(=O)CN1C(=O)CCc2ccccc21,2%,0%
COc1ccc(C(=O)NCCc2sc3nc(-c4ccc(C)cc4)nn3c2C)cc1OC,?,0%
C=CCNc1nc(C(=O)OCC(=O)N(C)CC(=O)Nc2ccc(C)cc2)cs1,-12%,-4%

Carrying on.
| SMILES | StopGo RLuc | 2A firefly |
| --- | --- | --- |
| Cc1ccc(C(=O)Nc2ccc(-c3nc4ccc(C)cc4s3)cc2)c(C)c1 | -15% | 47%[activator] |
| Cc1cc(C)n(C(=O)c2cn(C)nc2S(=O)(=O)N2CCN(c3cccc(F)c3)CC2)n1 | -9% | -11% |
| CCc1ccc(-n2c(N3CCN(c4ccc(F)cc4)CC3)nc3ccccc3c2=O)cc1 | -8% | -13% |
| COc1ccc(CCC2CCN(C(=O)Nc3ccccc3)CC2)cc1 | -24% | 1% |
| COc1ccccc1OCCn1cnc2c1c(=O)n(C)c(=O)n2C | -27% | -16% |
| CCCCNc1nc(-c2ccc(NC(=O)CC)cc2)cs1 | 15% | 9% |
| O=C(NCc1cccs1)c1ccc(CSc2nc3cccnc3n2Cc2ccccc2F)cc1 | 56%[activator] | -10% |
| CCc1ccccc1N(c1nc(-c2ccc(OC)c(OC)c2)no1)c1nc(-c2ccc(OC)c(OC)c2)no1 | -16% | -16% |
| Cc1ccc(C)c(Oc2coc3cc(OC(=O)C(C)(C)C)ccc3c2=O)c1 | 17% | 19% |
| COCCCNC(=O)CCC(=O)NNc1nc2ccccc2c2nc(C)nn12 | -22% | -25% |
| CCc1ccc(N2CC(C(=O)OCC(=O)Nc3ccc(C#N)cc3)CC2=O)cc1 (configuration not stated) | -6% | -2% |
| CC(=O)N1CCOc2cc(S(=O)(=O)Nc3cc(C(F)(F)F)ccc3Cl)c(C)cc21 | 170%[activator] | 0% |
| O=C(CSc1nc2cc([N+](=O)[O-])ccc2o1)NC1CC1 | -13% | 8% |
| Fc1ccc(/C=C/c2nc3cc(-c4ccccc4)ccc3o2)cc1 | -8% | 48%[activator] |
| O=S(=O)(c1ccc(Cl)cc1)c1ccc(-c2ccc(S(=O)(=O)c3ccc(Cl)cc3)cc2)cc1 | 14% | 20% |
| N#C/C(=C/c1ccccc1OC(F)F)C(=O)c1ccccc1 | 27% | 20% |
| Brc1cccc(CNCCSc2nnnn2-c2ccccc2)c1 | -9% | -11% |
| CC(=O)c1ccc(N2CCN(S(=O)(=O)c3ccc4c(c3)C(C)(C)C(=O)N4)CC2)cc1 | 2% | 0% |
| Cn1nc(C(=O)N2CCN(c3ccccc3F)CC2)c2ccccc2c1=O | 0% | 0% |
| COc1ccc(Cl)cc1NC(=O)Cn1ncc2c3ccccc3n(Cc3ccccc3)c2c1=O | 11% | 23% |
| O=C(Nc1cccc(COc2cccc(F)c2)c1)c1cc[n+]([O-])cc1 | 18% | 0% |
| CCCc1cc(=O)oc2cc(OCC(=O)N(C)C)ccc12 | -2% | 1% |
| Cc1cc(C)cc(NC(=O)c2nnn(Cc3cccc(Br)c3)c2N)c1 | 105%[activator] | -1% |
| O=C(NC1CCN(Cc2ccccc2)CC1)c1ccc(Cn2c(=O)c3ccccc3n(Cc3cccc(F)c3)c2=O)cc1 | -11% | -12% |
| CC(=O)OCC12COC(c3ccc(OC(C)=O)cc3)C(C(C)=CC1C)C2C (configuration not stated) | 0% | 27% |
| COc1cccc(NS(=O)(=O)c2ccc3c(c2)n(C)c(=O)n3C)c1 | 144%[activator] | ? |
| Cc1cccc(C)c1NC(=O)c1ccc2ccccc2n1 | -11% | -8% |
| O=C(CCCCCn1c(=O)[nH]c2ccsc2c1=O)NCc1ccccc1 | 100%[activator] | 5% |
| Cc1cccc(Cn2c(SCC(=O)c3ccccc3)nc3c2c(=O)[nH]c(=O)n3C)c1 | -10% | -5% |
| O=C1Cc2cc(-c3csc(-c4ccc(F)cc4)n3)cc3c2N1CCC3 | -7% | 229%[activator] |
| O=C(CCc1cccnc1)NCCOc1cccc(F)c1 | 17% | 28% |
| COC(=O)C1=CN(C(C)C)C=C(C(=O)OC)C1c1cccs1 | 17% | -1% |

Exported as labelled records: entries from further up
> COC(=O)C1=CN(C(C)C)C=C(C(=O)OC)C1c1cccs1
  StopGo RLuc: 17% | 2A firefly: -1%

> O=C(CCCCCn1c(=O)[nH]c2ccsc2c1=O)NCc1ccccc1
  StopGo RLuc: 100%[activator] | 2A firefly: 5%

> Cc1cccc(C)c1NC(=O)c1ccc2ccccc2n1
  StopGo RLuc: -11% | 2A firefly: -8%

> O=C(CCc1cccnc1)NCCOc1cccc(F)c1
  StopGo RLuc: 17% | 2A firefly: 28%

Further records follow.
| SMILES | StopGo RLuc | 2A firefly |
| --- | --- | --- |
| CCc1ccc(NC(=O)[C@H](CSCc2ccccc2)N2Cc3ccccc3C2=O)cc1 | 94%[activator] | 0% |
| CCOC(=O)C1(C)C=C(Nc2ccc(C)cc2)C(=O)N1c1ccccc1 (configuration not stated) | -9% | 17% |
| O=C(Cn1c(-c2ccccc2)cc2ccccc21)NCCC(=O)N1CCCC1 | 11% | -13% |
| O=C(O)CCc1ccc(S(=O)(=O)Nc2ccccc2C(=O)NCCc2ccccc2)cc1 | -7% | 141%[activator] |
| Cc1c(Cl)cccc1NC(=O)c1noc2c1CC(C)CC2 (configuration not stated) | 12% | 131%[activator] |
| CCOc1ccc(NC(=O)c2nn(-c3ccccc3OC)c(=O)c3ccccc23)cc1 | 4% | 9% |
| Cn1nc(C(=O)NCc2ccc(Cl)cc2)c2c1-c1ccccc1S(=O)(=O)C2 | -12% | -17% |
| CCOc1ccc(CNC(=O)CCn2c(=O)c3cccn3c3cccnc32)cc1 | -8% | 4% |
| Cc1ccc(C(=O)Nc2nc3n(n2)C(c2ccccc2)C=C(c2ccccc2)N3)cc1 (configuration not stated) | 2% | 11% |
| Cc1nc(SCC(=O)Nc2nsc(-c3ccc(C(C)(C)C)cc3)n2)c2c3c(sc2n1)CCCC3 | 4% | 17% |
| Cc1ccc2[nH]c(CSc3nnc(NC(=O)c4ccccc4C)s3)cc(=O)c2c1 | ? | ? |
| COc1ccc(Nc2nc(N)c(C(=O)c3ccc(Cl)cc3)s2)cc1 | 5% | 61%[activator] |
| Cc1ccccc1-n1ncc2c1NC(=O)CC21C(=O)Nc2cccc(Cl)c21 (configuration not stated) | -21% | -23% |
| Cc1ccc(Nc2c3c(nc4nncn24)CCC3)c(C)c1 | -10% | -12% |
| COc1ccc(NC(=O)Cn2c(=O)oc3cc(S(=O)(=O)NC4CCCC4)ccc32)cc1OC | 200%[activator] | 11% |
| O=C(Oc1ccc2c(=O)c(-c3ccc(Br)cc3)coc2c1)c1ccco1 | -3% | 123%[activator] |
| CS(=O)(=O)Cc1ccc(C(=O)OCc2cc(=O)oc3cc4c(cc23)CCC4)cc1 | -9% | 13% |
| CCOc1ccc(-c2cc(C(=O)NCCc3ccc(OC)c(OC)c3)c3c(-c4ccc(F)cc4)[nH]nc3n2)cc1 | -10% | -12% |
| CC(=O)c1cccc(NC(=O)CSc2nnc3ccc(-c4ccc(F)cc4)nn23)c1 | -5% | -12% |
| CCN1CCN(Cc2ccc(CNC(=O)C(C)NC(=O)c3ccco3)cc2)CC1 (configuration not stated) | -16% | -4% |
| Cc1cccc(C(=O)Nc2nc3c(s2)CCCC3)c1 | -2% | 53%[activator] |
| C=CCNC(=O)CSCc1coc(-c2ccc(Cl)cc2)n1 | -2% | 52%[activator] |
| Cc1ccc(NC(=O)N2CCN3CCCCC3C2)cc1C (configuration not stated) | -12% | 38%[activator] |
| Cc1cc2nc(CSc3nc4ccc(NC(=O)CCC5CCCC5)cc4s3)cc(=O)n2o1 | 8% | 8% |

A portion of the library, so the mix of outcomes need not match the whole.
